SARS PLP yeast – inhibitors of SARS-CoV papain-like protease in yeast | Potency, µM (highest dose often 32.9 µM), for inactives: at the highest dose activity, positive = growth rescue | S. cerevisiae expressing SARS-CoV PLpro, growth rescue; control for the full effect not named in the record | hit rate 0.19% among 330,000 | AID 485353; active means well fitted rising curve with a large enough effect; inconclusive means small, poorly fitted or top-dose-only effect; inactive means no such curve, though single readings can be large or run the other way; further: 0% is about no effect; nearly all actives have a fitted effect of over 55% in size; growth read by luminescence after 48 h
StopGo reporter – FMDV 2A StopGo reporter, luciferase signal; AID 1159524; Potency, µM (series often up to 57.9 µM), without a hit: top-dose signal change, negative = less light; hit rate 1.2% among 410,000; human cells with a luciferase reporter of 2A StopGo recoding; control for the full effect not named in the record; active = well fitted falling curve with a large enough effect; inconclusive = small, poorly fitted or top-dose-only effect; inactive = no such curve, though single readings can be large or run the other way; tested in HEK293T cells; further: on the % scale 0 is the no-effect control and ±100 the full control effect; nearly all actives have a fitted effect of over 45% in size; luciferase light after 4 h
RE007 growth inh – less growth of the S. pombe RE007 Vpr strain | Potency, µM (series often up to 92.2 µM), for the others: at the highest dose activity change, negative = less growth | hit rate 0.21% among 360,000 | AID 651644 | S. pombe RE007 Vpr strain, BacTiter-Glo ATP luminescence, 24 h; control for the full effect not named in the record; active = well fitted falling curve with a large enough effect; inconclusive = small, poorly fitted or top-dose-only effect; inactive = no such curve, though single readings can be large or run the other way;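 further: on the % scale 0 is the no-effect control and ±100 the full control effect; nearly all actives have a fitted effect of over 50% in size; the assay follows cell death caused by Vpr and the record does not say whether a fall means rescue or toxicity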
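Fission yeast RE007 carrying one integrated HIV-1 vpr copy, seeded at OD 0.01 in PMG+AL medium with 23 nL pinned compound. Grown 24 h at 30 degrees; viability read by BacTiter-Glo luminescence after 5 min.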
Active calls of the source: *; [ ] = another dose, or the depositor's remark. Potency means the concentration at half of the fitted maximal effect.

The opening 2 compounds as a preview:
`Cc1cnc(C(=O)OC(C(=O)c2ccccc2)c2ccccc2)cn1` (configuration not stated) gave SARS PLP yeast 2%, StopGo reporter -7% and RE007 growth inh 4%.
COc1ccccc1CC(=O)N1CCN(S(=O)(=O)c2ccccc2F)CC1 was read as SARS PLP yeast 0%, StopGo reporter -11% and RE007 growth inh -4%.

Main list, previewed entries included:
`Cc1cnc(C(=O)OC(C(=O)c2ccccc2)c2ccccc2)cn1` (configuration not stated) gave SARS PLP yeast 2%, StopGo reporter -7% and RE007 growth inh 4%.
COc1ccccc1CC(=O)N1CCN(S(=O)(=O)c2ccccc2F)CC1 was read as SARS PLP yeast 0%, StopGo reporter -11% and RE007 growth inh -4%.
For CC[C@H](C)Cc1cn([C@@H](CCCCNC(=O)OC(C)(C)C)C(=O)NCCCCCCCCCCC(=O)N2CCN(C(=O)OC(C)(C)C)CC2)nn1 the results were SARS PLP yeast 1%, StopGo reporter 14µM* and RE007 growth inh 4%.
For Cn1cccc1C1CCCN1CC(=O)Nc1ccc(C(N)=O)cc1 (configuration not stated) the results were SARS PLP yeast -3%, StopGo reporter -9% and RE007 growth inh -19%.
`COc1cccc([C@@H]2CC=C(C(=O)O)[C@H](c3cccc(Cl)c3)N2S(=O)(=O)c2ccc(C)cc2)c1` gave SARS PLP yeast -1%, StopGo reporter 14% and RE007 growth inh -2%.
`CCOC(=O)c1nnn(-c2nonc2N)c1-c1ccc(Br)cc1` gave SARS PLP yeast 1%, StopGo reporter inconclusive and RE007 growth inh 13%.
`COC(=O)C1=C(c2ccc(Cl)c(C(F)(F)F)c2)C[C@@H]2CC[C@H]1N2C(=O)N1CCCC1` gave SARS PLP yeast -2%, StopGo reporter inconclusive and RE007 growth inh 6%.
`CCC(CO)Oc1cc(NCc2ccc(C(=O)O)cc2)c2ncn(C(C)C)c2c1` (configuration not stated) gave SARS PLP yeast -7%, StopGo reporter -9% and RE007 growth inh -16%.
Screening CC(C)(O)C#Cc1ccc(CNC[C@H]2O[C@@H](n3cnc4c(N)ncnc43)[C@H](O)[C@@H]2O)s1 returned SARS PLP yeast 2%, StopGo reporter -5% and RE007 growth inh 10%.
Screening COCC(=O)N(C)C[C@H]1N[C@@](Cc2ccccc2)(C(=O)OC)[C@H]2C(=O)N(C)C(=O)[C@@H]12 returned SARS PLP yeast 3%, StopGo reporter -19% and RE007 growth inh -6%.
For Cc1ccc(NC(=S)N2CCC(c3ccc(C)cc3)C2)cc1 (configuration not stated) the results were SARS PLP yeast -7%, StopGo reporter 67%[activator] and RE007 growth inh -5%.
CC(C)[C@H]1COCCS(=O)(=O)N1Cc1ccccc1-c1ccc(F)cc1 was read as SARS PLP yeast -12%, StopGo reporter inconclusive and RE007 growth inh 6%.
CCOC(=O)C1=C(COC(=O)C2CC(=O)N(c3ccc(CC)cc3)C2)NC(=O)NC1C (configuration not stated) was read as SARS PLP yeast 2%, StopGo reporter 1% and RE007 growth inh -1%.
For C(=N\NC1=Nc2cccc3cccc1c23)/c1ccccn1 the results were SARS PLP yeast -3%, StopGo reporter 9% and RE007 growth inh inconclusive.
`COc1ccc(CCN2CC(C(=O)Nc3nccs3)CC2=O)cc1OC` (configuration not stated) gave SARS PLP yeast 1%, StopGo reporter 4% and RE007 growth inh 0%.
O=C(COC(=O)c1cc(=O)[nH]c2ccccc12)NCCc1ccccc1 was read as SARS PLP yeast -4%, StopGo reporter -9% and RE007 growth inh -7%.
Screening CCOC(=O)c1sc(NC(=O)c2c(CC)noc2C)nc1C returned SARS PLP yeast -3%, StopGo reporter -10% and RE007 growth inh -15%.
`Cc1cccc(NC(=O)CSc2nc3ccccc3c(=O)n2CC2CCCO2)c1` (configuration not stated) gave SARS PLP yeast 1%, StopGo reporter 39%[activator] and RE007 growth inh 3%.
NC(=O)c1cc([N+](=O)[O-])ccc1NCc1cccc(N)c1 was read as SARS PLP yeast 2%, StopGo reporter 0% and RE007 growth inh -1%.
`CC1CN(C(=O)c2ccc([N+](=O)[O-])s2)CC(C)O1` (configuration not stated) gave SARS PLP yeast 6%, StopGo reporter -5% and RE007 growth inh -6%.
`COc1ccc(S(=O)(=O)N2CCN(CCOc3ccc(Br)cc3)CC2)cc1OC` gave SARS PLP yeast -22%, StopGo reporter inconclusive and RE007 growth inh -5%.
Screening O=C(CNC(=O)c1cccc(N2C(=O)c3ccccc3C2=O)c1)Nc1ccc(F)c(F)c1 returned SARS PLP yeast -11%, StopGo reporter -11% and RE007 growth inh -10%.
For CC(C)C(NC(=O)c1cccc(S(=O)(=O)N2CCOCC2)c1)C(=O)NCc1ccc(Cl)cc1 (configuration not stated) the results were SARS PLP yeast 0%, StopGo reporter -5% and RE007 growth inh 2%.
`O=C(CSc1nnc(-c2ccccc2F)n1C1CCCCC1)Nc1cc(C(=O)O)ccc1Cl` gave SARS PLP yeast -1%, StopGo reporter -25% and RE007 growth inh 2%.
Screening COc1ccccc1OCCC(=O)Nc1ccc2c(c1)OCO2 returned SARS PLP yeast -2%, StopGo reporter 27% and RE007 growth inh 3%.
Screening O=C(O)c1ccccc1OCc1ccccc1Br returned SARS PLP yeast 1%, StopGo reporter 24% and RE007 growth inh 2%.
Screening Cc1ncc([N+](=O)[O-])n1CC(=O)Nc1ccccc1 returned SARS PLP yeast 1%, StopGo reporter 2% and RE007 growth inh 12%.
Screening Nc1cc(N)nc(SCC(=O)NCc2ccc3c(c2)OCO3)n1 returned SARS PLP yeast 2%, StopGo reporter -18% and RE007 growth inh 3%.
CCOC(=O)Cc1csc(NC(=O)c2cc(-c3ccncc3)nc3ccccc23)n1 was read as SARS PLP yeast -6%, StopGo reporter inconclusive and RE007 growth inh 1%.
COc1ccccc1N(CC(=O)N1CCCC1)S(=O)(=O)c1cc([N+](=O)[O-])ccc1Cl was read as SARS PLP yeast 3%, StopGo reporter 17% and RE007 growth inh -6%.

3 structures already listed, ordered by molecular weight, descending.
`COc1ccc(S(=O)(=O)N2CCN(CCOc3ccc(Br)cc3)CC2)cc1OC` gave SARS PLP yeast -22%, StopGo reporter inconclusive and RE007 growth inh -5%.
Screening Nc1cc(N)nc(SCC(=O)NCc2ccc3c(c2)OCO3)n1 returned SARS PLP yeast 2%, StopGo reporter -18% and RE007 growth inh 3%.
Screening COc1ccccc1OCCC(=O)Nc1ccc2c(c1)OCO2 returned SARS PLP yeast -2%, StopGo reporter 27% and RE007 growth inh 3%.

Continuation:
O=C(NC(Cc1ccc(O)cc1)C(=O)O)c1ccc2c(c1)OCO2 (configuration not stated) was read as SARS PLP yeast 2%, StopGo reporter -6% and RE007 growth inh -4%.
`O=C(Cc1c(F)cccc1Cl)NNC(=O)c1cccs1` gave SARS PLP yeast 8%, StopGo reporter 7% and RE007 growth inh 15%.
`COC(=O)c1ccccc1NS(C)(=O)=O` gave SARS PLP yeast 1%, StopGo reporter -10% and RE007 growth inh -7%.
For CCC(C)Sc1ccc([C@@H]2[C@H]3C(=O)N(C)C(=O)[C@H]3[C@]3(C(=O)OC)CCCN23)cc1 (some centres not stated) the results were SARS PLP yeast 2%, StopGo reporter 0% and RE007 growth inh -9%.
`COc1ccc(-c2sc3ccc(OC)cc3c2-c2ccc(O)cc2)cc1` gave SARS PLP yeast -26%, StopGo reporter inconclusive and RE007 growth inh -25%.
For O=C(CN1C(=O)NC(c2ccccc2)(c2ccccc2)C1=O)NC1CCS(=O)(=O)C1 (configuration not stated) the results were SARS PLP yeast -9%, StopGo reporter -7% and RE007 growth inh 2%.
CCc1cc(CC)c(/C=N/NC(N)=O)c(CC)c1 was read as SARS PLP yeast -2%, StopGo reporter -14% and RE007 growth inh 15%.
`COc1ccc(N2CCN(C(CNC(=O)C(C)(C)C)c3ccco3)CC2)cc1` (configuration not stated) gave SARS PLP yeast 2%, StopGo reporter -11% and RE007 growth inh 9%.
Screening CCOc1ccc(COC(=O)C2CC(=O)N(CCc3ccccc3)C2)cc1OC (configuration not stated) returned SARS PLP yeast 2%, StopGo reporter -13% and RE007 growth inh -2%.
Screening CC(=O)O[C@H]1CC[C@@]2(C)C(=CC[C@H]3[C@@H]4CC[C@H](C5(C)OCCO5)[C@@]4(C)CC[C@@H]32)C1 returned SARS PLP yeast 2%, StopGo reporter -5% and RE007 growth inh 6%.
`Cc1ccc(NC(=O)COC(=O)C2CSC3(C)CCC(=O)N23)c(C)c1` (configuration not stated) gave SARS PLP yeast 0%, StopGo reporter -12% and RE007 growth inh 24%.
For CCCCN(C)CCNC(=O)CSCc1ccc(C)cc1 the results were SARS PLP yeast 2%, StopGo reporter -6% and RE007 growth inh -4%.
C/C(=C\c1ccccc1)C(=O)c1c(C)cc(C)[nH]c1=O was read as SARS PLP yeast 2%, StopGo reporter 14% and RE007 growth inh 8%.
For Cc1ccsc1C(=O)NCC(C)(C)N1CCOCC1 the results were SARS PLP yeast 0%, StopGo reporter -22% and RE007 growth inh 0%.
Screening Cc1ccsc1/C=N/NC(=O)CC(=O)NCC(C)C returned SARS PLP yeast 2%, StopGo reporter 15% and RE007 growth inh -14%.
Screening CCN1CCN(C(=O)C(C)Sc2nnc3nc(C)cc(C)n23)CC1 (configuration not stated) returned SARS PLP yeast -1%, StopGo reporter -8% and RE007 growth inh -6%.
Screening O=C(CSc1nnc(C2CC2)n1C1CC1)Nc1cccc(Br)c1 returned SARS PLP yeast 0%, StopGo reporter 0% and RE007 growth inh 10%.
Screening O=C(Nc1nc2ccc(S(=O)(=O)N3CCCC3)cc2s1)c1ccccn1 returned SARS PLP yeast -2%, StopGo reporter 16% and RE007 growth inh 8%.
CC(C)NC(=O)Nc1ccc2c(c1)C(=O)N([C@H](C)CO)C[C@H](C)[C@@H](CN(C)S(=O)(=O)c1ccc(F)cc1)O2 was read as SARS PLP yeast -6%, StopGo reporter -2% and RE007 growth inh 4%.
Screening CC[C@@H]1C=C(C(=O)O)[C@H](c2ccc3c(c2)OCO3)N1S(=O)(=O)c1ccc(C)cc1 returned SARS PLP yeast 4%, StopGo reporter -11% and RE007 growth inh 6%.
Screening O=C(CCS(=O)(=O)c1ccccc1)NNC(=O)COc1ccc(F)cc1 returned SARS PLP yeast -1%, StopGo reporter -3% and RE007 growth inh -9%.
`CC1(C)C(=O)Nc2ccccc2N1C(=O)COC(=O)CSc1ccc(Cl)cc1` gave SARS PLP yeast -7%, StopGo reporter -8% and RE007 growth inh 2%.
`Cc1cc(C)n(C(=O)/C(C#N)=N/Nc2cc(Cl)cc(Cl)c2)n1` gave SARS PLP yeast -32%, StopGo reporter inconclusive and RE007 growth inh -15%.
For C#Cc1ccc(C(=O)Nc2ccc(N3CCC(C)CC3)c(C(N)=O)c2)cc1 the results were SARS PLP yeast 0%, StopGo reporter -12% and RE007 growth inh -10%.
C[C@@H]1CN([C@@H](C)CO)C(=O)c2cc(NS(C)(=O)=O)ccc2O[C@@H]1CN(C)S(=O)(=O)c1ccccc1 was read as SARS PLP yeast 4%, StopGo reporter 2% and RE007 growth inh -3%.
Screening Cc1cc(C)c(S(=O)(=O)N2CCN(C(=O)c3cc(=O)[nH]c4ccccc34)CC2)c(C)c1 returned SARS PLP yeast 3%, StopGo reporter -25% and RE007 growth inh 0%.
Cc1ccc(S(=O)(=O)N2[C@@H](c3ccc(Br)cc3)C(C(=O)O)=CC[C@H]2c2ccc(Cl)cc2)cc1 was read as SARS PLP yeast 3%, StopGo reporter 0% and RE007 growth inh 6%.
C1=C(c2cc3ccccc3cn2)CCCC1 was read as SARS PLP yeast 0%, StopGo reporter 38%[activator] and RE007 growth inh inconclusive.
For CCCN(CC(=O)Nc1ccccc1OC)C(=O)CSc1ccc(Br)cc1C the results were SARS PLP yeast -4%, StopGo reporter -22% and RE007 growth inh 3%.
`CC[C@]12c3[nH]c4cc(CCC(=O)N(C)C)ccc4c3CCN1C(=O)[C@@H](CC(=O)NCCC1=CCCCC1)C[C@@H]2C(=O)N1CCN(C(=O)C2CC2)CC1` gave SARS PLP yeast 1%, StopGo reporter -8% and RE007 growth inh -10%.
Screening O=C(NCc1cccnc1)C1CCN(S(=O)(=O)c2cccc(C(F)(F)F)c2)CC1 returned SARS PLP yeast -5%, StopGo reporter -20% and RE007 growth inh -20%.
For O=C(COC(=O)c1cc(Cl)nc(Cl)c1)NCc1ccc2c(c1)OCO2 the results were SARS PLP yeast 0%, StopGo reporter -22% and RE007 growth inh 4%.
`O=C(C[C@H]1C[C@H](C(=O)N2CCCCC2)[C@@]2(CCc3ccccc3)c3[nH]c4cc(-c5ccco5)ccc4c3CCN2C1=O)NCc1ccco1` gave SARS PLP yeast -6%, StopGo reporter -6% and RE007 growth inh 3%.
`N#Cc1cccc(NC(=O)c2ccc(S(=O)(=O)N3CCOCC3)cc2)c1` gave SARS PLP yeast -3%, StopGo reporter -14% and RE007 growth inh -15%.
`CN(C(=O)c1ccc(NC(=O)C2CCN(C(=O)OC(C)(C)C)CC2)cc1)C1CC1` gave SARS PLP yeast 0%, StopGo reporter -15% and RE007 growth inh 5%.

High-throughput results as filed in PubChem.

Some of the compounds tested. The share of hits here may be higher or lower than overall.
